NPR1 antag: Natriuretic polypeptide receptor (hNpr1) antagonism - Primary qHTS; HEK293 hNpr1 GloSensor cGMP, ANP-stimulated luminescence; Potency, µM (highest dose often 46.3 µM), without a hit: at the top dose activity change, negative = inhibition, hits mostly inhibitors; 76,000 compounds, 1.6% hits; AID 1347048, 2019; active = well fitted inhibition curve with a large enough effect; inconclusive = small, poorly fitted or top-dose-only effect; inactive = no such curve, though single readings can be large or run the other way;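 further: nearly all actives have a fitted effect of over 60% in size; nearly all hits also lower the signal before the agonist is added; a reference antagonist and vehicle were the controls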
Target sequence (P16066 whole entry, looked up): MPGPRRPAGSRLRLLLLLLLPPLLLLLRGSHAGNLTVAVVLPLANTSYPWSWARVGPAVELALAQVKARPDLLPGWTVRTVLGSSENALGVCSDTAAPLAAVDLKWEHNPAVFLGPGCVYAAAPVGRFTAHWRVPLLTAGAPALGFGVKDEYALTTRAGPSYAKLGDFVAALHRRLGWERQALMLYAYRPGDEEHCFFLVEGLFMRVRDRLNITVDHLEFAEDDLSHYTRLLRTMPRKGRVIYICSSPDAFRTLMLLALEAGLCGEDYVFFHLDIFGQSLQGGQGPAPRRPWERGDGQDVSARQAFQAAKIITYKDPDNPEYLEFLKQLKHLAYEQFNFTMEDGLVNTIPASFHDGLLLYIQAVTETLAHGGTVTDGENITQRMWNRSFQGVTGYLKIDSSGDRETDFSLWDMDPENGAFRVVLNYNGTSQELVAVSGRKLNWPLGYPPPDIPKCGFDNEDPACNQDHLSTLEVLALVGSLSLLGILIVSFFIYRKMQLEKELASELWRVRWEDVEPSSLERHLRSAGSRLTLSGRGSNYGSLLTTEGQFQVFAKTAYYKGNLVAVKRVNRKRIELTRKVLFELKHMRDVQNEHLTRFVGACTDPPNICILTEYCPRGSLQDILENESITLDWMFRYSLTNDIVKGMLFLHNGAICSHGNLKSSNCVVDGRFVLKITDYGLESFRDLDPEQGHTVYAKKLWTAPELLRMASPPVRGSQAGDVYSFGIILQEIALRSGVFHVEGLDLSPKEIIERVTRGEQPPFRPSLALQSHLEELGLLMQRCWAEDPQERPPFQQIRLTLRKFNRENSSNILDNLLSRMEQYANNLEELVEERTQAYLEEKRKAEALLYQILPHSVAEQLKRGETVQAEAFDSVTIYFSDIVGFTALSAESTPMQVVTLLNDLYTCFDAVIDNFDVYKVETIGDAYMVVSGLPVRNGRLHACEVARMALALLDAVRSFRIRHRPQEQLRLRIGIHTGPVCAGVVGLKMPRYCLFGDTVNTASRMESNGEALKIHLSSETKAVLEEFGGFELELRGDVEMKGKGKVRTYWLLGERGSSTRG
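HEK293 cells stably expressing human Npr1 and cGMP GloSensor pGS-40F, loaded 2 h with 2% GloSensor reagent, given compound 30 min at room temperature. Luminescence read before and 20 min after 0.1 nM hNppA.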
An asterisk follows results filed as active; ? = inconclusive; [ ] = remark or other dose. On the % scale 0 is the no-effect control and ±100 the full control effect; potency means the concentration at half of the fitted maximal effect.

SMILES	NPR1 antag
O=C1Nc2ccc(Br)cc2C(=O)N2CCN(C(=O)c3ccccc3)C[C@H]12	2.9%[70.6 µM]
Cc1ccccc1CN1CCC2(CC1)OCCN(CCc1ccccc1)C2=O	1.5%[70.6 µM]
CN[C@H](C(=O)N[C@@H]1C=C(C(=O)N[C@H](CC(C)C)C(N)=O)C[C@@H](O)[C@@H]1O)C(C)C	4.5%[70.6 µM]
Cc1ccc(-c2ncc(C(=O)Nc3ccccc3C)c(-c3ccncc3)n2)cc1	-5.0%
Cc1ccc(OCc2nc(C3CN(C(=O)C4CCCO4)C3)no2)cc1 (stereo unspecified)	-1.4%
CCOc1ccc(C(=O)N2CC(c3nnc(C(C)C)o3)C3(CCOCC3)C2)cc1 (stereo unspecified)	-2.8%
Cc1n[nH]c(C)c1CNC(=O)C1CCN(c2cn[nH]c(=O)c2)C1 (stereo unspecified)	-0.7%
O=C(C(=O)N1CCc2[nH]nc(-c3cccc4ccccc34)c2C1)c1cccnc1	-0.8%
C[C@H](c1ccccc1)N1C(=O)[C@@H]2CN(C(=O)c3cccs3)CCN2C1=O	-4.1%[70.6 µM]
O=C(NCCC1CCN(C(=O)Nc2cc(F)ccc2F)CC1)C1CCCC1	3.5%
O=C1c2cnc(-c3ccccc3)nc2OCCN1Cc1ccccc1	-10.9%[70.6 µM]
COc1cc(CNCCc2ccc(Cl)cc2)ccc1OCC(O)CN1CCOCC1 (stereo unspecified)	-2.8%
O=C(NCc1ccccc1)c1nc2c(o1)CCN(Cc1ccc(F)cc1F)CC2	25.1µM*
Cc1ccccc1C(=O)N1CCn2c(nn(-c3ccc([N+](=O)[O-])cc3)c2=O)C1	-18.4%
CCC(=O)N(C1CCOCC1)C1CCN(S(=O)(=O)c2cc(F)ccc2C)CC1	-6.3%
O=C(c1ccoc1)N1CCCC(c2noc(COc3ccccc3)n2)C1 (stereo unspecified)	?
Cc1ccc([S+](=O)([O-])N2CCn3c(nn(-c4ccc(C(F)(F)F)cc4)c3=O)C2)cc1	18.1%
O=C(CN1C(=O)NC(c2ccc(Cl)cc2)C2=C1COC2=O)Nc1cccc(F)c1 (stereo unspecified)	-17.1%
CC1=NS(=O)(=O)N(C)C=C1C(=O)OCc1nc(-c2ccsc2)no1	?
O=C(NCc1nnc2c(-c3nc(C4CC4)no3)cccn12)c1ccc(F)c(F)c1	-1.5%
Cc1nc2c(c(-c3ccc(O)cc3)n1)CN(Cc1cccc3ccccc13)CCC2	?
COc1ccc(-c2cn3c(n2)CO[C@@H](CNC2CCOCC2)C3)cc1	2.6%[70.6 µM]
COc1ccc(-c2cc(C[C@H]3CNCC[C@H]3CC(=O)Nc3ccccc3)no2)cc1	-21.1%[70.6 µM]
CCOc1ccc(-c2noc(-c3ncn4c3COC(c3ccc(OC)cc3)C4)n2)cc1 (stereo unspecified)	2.9%
Cc1ccc(C)c(S(=O)(=O)N2CCCC(Cn3c(C4CC4)nc4cccnc43)C2)c1 (stereo unspecified)	-13.5%

(further entries)
SMILES	NPR1 antag
Cc1ccccc1-c1noc(CNCc2cc(F)ccc2C(F)(F)F)n1	3.6%
COCc1nc(C2CCN(C(=O)Nc3ccc4c(c3)OCCO4)C2)no1 (stereo unspecified)	-7.9%
Cc1ccccc1Oc1ncccc1CNC(=O)c1ccc2c(c1)OCO2	-1.8%
COc1ccc(C(=O)N2CCC3(CC(C)=NO3)C2)cc1 (stereo unspecified)	0.0%[70.6 µM]
Cc1ccc(NC(=O)Cn2c(N3CCCCC3)nc(C)c(C)c2=O)cc1	-1.4%
COc1ccccc1CN1CCCC(c2[nH]ccc2C(N)=O)C1 (stereo unspecified)	-13.2%
Cc1nnc(C2CCCCCN2[S+](=O)([O-])c2cc(F)ccc2C)o1 (stereo unspecified)	-0.9%
O=C(CN1C(=O)COc2ccc(C(=O)COc3ccccc3Cl)cc21)NC1CCCCC1	-5.4%
CNC(=O)[C@@H]1C[C@@H](n2cc(CN(C)C(=O)c3cc(F)ccc3Cl)nn2)CN1	13.1%
c1ccc2c(c1)CC(n1ccnc1-c1cc3n(n1)CCCNC3)C2	-15.7%
CCCCN1C(=O)c2ccccc2C(C(=O)NCc2ccncc2)C12CCCCC2 (stereo unspecified)	-2.7%
C=CCNC(=O)N[C@H]1C[C@@H](C(=O)N[C@H](Cc2c[nH]c3ccccc23)C(N)=O)N(C(=O)c2cccn2C)C1	2.7%
O=C(NC1CCCCC1)N1CCC(N2C(=O)C3(CCCCC3)C2c2ccncc2)CC1 (stereo unspecified)	-2.1%
O=C(Nc1ccc(F)cc1)[C@@H]1C[C@@H](c2ccc(F)cc2)N([S+](=O)([O-])c2ccccc2)C1	-14.0%
CCOc1ccccc1C(=O)NC1CCN(c2cc(-c3ccc(Cl)cc3)[nH]n2)C1 (stereo unspecified)	-22.7%
CCOc1cc(=O)n2c(c1C(=O)Nc1cc(C)ccc1F)CCCC2	-0.7%
COc1ccc2[nH]c3c(c2c1)CCNC31CCN(C(=O)c2cccnc2C)CC1	3.8%
CCCC1(CO)CCCN(Cc2nnc(-c3cccc(F)c3)o2)C1 (stereo unspecified)	2.0%
Cc1ccc(C(=O)N2CCC3(CC2)N(C)C(=O)CS3(=O)=O)cc1	-8.6%
COCCNC(=O)C(NC(=O)c1cccs1)C1CCN(C(=O)c2cccs2)CC1 (stereo unspecified)	1.1%
O=C(NCC1CCOCC1)c1ccccc1C(F)(F)F	1.1%
CC(C)(C)NC(=O)N1CCCCCCNC(=O)[C@@H]2C[C@@H](C(=O)N3CCN(c4ccccn4)CC3)C[C@@H]21	1.5%
COc1cccc(NC(=O)c2cc3c(N4CCCC4)nc(C)cn3n2)c1	-0.2%
CC(=O)NC1(C)CCN(Cc2ccc(-c3ccccc3OCc3ccccc3)cc2)C1 (stereo unspecified)	-4.2%[70.6 µM]
Cc1cc(C(=O)N2C[C@H](NC(=O)Cn3nnnc3N)[C@@H](C3CC3)C2)c(C)o1	1.9%

Two entries drawn at random from those above, as already listed:
SMILES	NPR1 antag
Cc1cc(C(=O)N2C[C@H](NC(=O)Cn3nnnc3N)[C@@H](C3CC3)C2)c(C)o1	1.9%
COCc1nc(C2CCN(C(=O)Nc3ccc4c(c3)OCCO4)C2)no1 (stereo unspecified)	-7.9%

Next section:
SMILES	NPR1 antag
O=C(c1cccc(Cl)c1)N1C[C@@H](CO)[C@H](c2ccccn2)C1	2.9%
O=C(NC1CCCCC1)[C@H]1O[C@H](CCN2CCNCC2)CC[C@@H]1O	1.3%[70.6 µM]
C[S+](=O)([O-])N1CC2(Cc3ccccc31)CN(C(=O)c1ccccc1Cl)C2	-15.7%
N#Cc1ccc(C(=O)Nc2ccc([C@H]3OCC(=O)N(Cc4cccnc4)[C@@H]3CO)cc2)cc1	5.4%
Cc1ccc(NC(=O)N2CCCC(c3noc(COc4ccccc4)n3)C2)cc1C (stereo unspecified)	-16.7%
CN1[C@@H](CCC(=O)N2CCN(c3ccccn3)CC2)CNC(=O)[C@@H]2[C@H]1CCN2Cc1cccs1	-3.3%
O=C(c1cc2n(n1)CC(c1ccc(Cl)cc1)OC2)N1CCN(c2ccccc2Cl)CC1 (stereo unspecified)	-25.0%
O=C(CN1CCN(c2nc3ncccc3o2)CC1)c1cccc(Cl)c1	5.4%
CN(Cc1ccc2nsnc2c1)c1cc(C2CC(O)C2)ncn1 (stereo unspecified)	?
CC(C)(C)CC(=O)N[C@H]1C[C@@](O)(C(=O)NCC(N)=O)C[C@@H](O)[C@@H]1O	-1.5%[70.6 µM]
CCOC(=O)c1[nH]ncc1C1CC(=O)Nc2n[nH]c(-c3ccccc3)c21 (stereo unspecified)	-2.1%
Cc1noc(C)c1[S+](=O)([O-])N1CCC(c2nn(-c3ccc(F)cc3)c(=O)[nH]2)CC1	17.4%
CC(C)COC(=O)N1CCCn2nc(-c3nc4ccccc4n3C)cc2C1	?
CCOc1nccn2c(-c3ccc(CNC(=O)c4ccnn4C)cc3)cnc12	-17.7%[70.6 µM]
COc1ccc(-c2cc(N3CCCC(NC(=O)c4ccc(C(F)(F)F)cc4)C3)n[nH]2)cc1 (stereo unspecified)	-25.4%
c1ccc(-c2cc(CC3(NCc4ccc5c(c4)OCO5)COC3)no2)nc1	-6.2%[70.6 µM]
CCN1CCC2(CCC1=O)CN(C(=O)CCCc1cccs1)CCN2C (stereo unspecified)	2.4%
Cc1cccnc1CNC[C@H]1O[C@@H]2C[C@@H](CC(=O)N3CCOCC3)O[C@@H]2[C@@H]1O	5.7%[70.6 µM]
COCCN1CCCC2(CCN(c3ccc4ccccc4n3)C2)C1=O (stereo unspecified)	3.5%
Cc1ncsc1C(=O)N1CCCC(c2ccc(C(=O)O)cc2)C1 (stereo unspecified)	-3.7%
CN(C)c1cccc(Nc2cc3c(cn2)CN(Cc2ccccc2)CCN3)c1	?
CC(NC(=O)C1CCN(c2cc(C(F)(F)F)ncn2)CC1)c1ccc(F)cc1 (stereo unspecified)	-27.4%
O=C(N[C@@H]1CCC[C@@H]1C(=O)N1CCN(c2ccccc2F)CC1)c1ccncc1	0.3%
O=C(N[C@H]1CCN2C(=O)c3cc(-c4cccc(C(F)(F)F)c4)ccc3NC(=O)[C@H]12)C1CCCC1	0.0%
Cc1nc(CCC(=O)N2CCCC(CCc3c(F)cccc3F)C2)n[nH]1 (stereo unspecified)	5.5%

Further structures
SMILES	NPR1 antag
Cc1ccccc1OCC(=O)c1ccc2c(c1)N(CC(=O)NCc1ccco1)C(=O)CO2	-5.3%
COc1ccc(CNC(=O)[C@H]2CCC[C@H]2NC(=O)c2cnc(C)cn2)c(OC)c1	-0.7%
COc1cc(OC)cc(C(=O)NC2CCN(c3cc(C(F)(F)F)ncn3)CC2)c1	?
O=C(NCc1ccc2c(c1)OCO2)C1CCN(c2cn[nH]c(=O)c2)C1 (stereo unspecified)	9.6%
O=C(NCc1cccs1)C1CN(c2ccccc2)C(=O)N1 (stereo unspecified)	0.0%[70.6 µM]
CCNC(=O)C1CCN(Cc2nc(-c3cccc(Oc4ccccc4)c3)oc2C)C1 (stereo unspecified)	-0.1%
CC1(CNC(=O)c2nccc3ccccc23)CCOCC1	0.1%
COc1ccc(-c2cc(N3CCC(NC(=O)c4cc(OC)c(OC)c(OC)c4)C3)n[nH]2)cc1 (stereo unspecified)	0.5%
C=CCN(CC=C)C(=O)C1CCCN(C2CCN(C3Cc4ccccc4C3)CC2)C1 (stereo unspecified)	1.5%
COC[C@H]1CCCN1Cc1nc(C2(O)CCN(Cc3ccc(F)cc3)CC2)cs1	-5.9%[70.6 µM]
O=C(c1ccncc1)N1CC[C@H]2COC(=O)N2c2cc(F)ccc2C1	7.5%[70.6 µM]
O[C@@H]1[C@@H](Cn2cc(C3CC3)nn2)C[C@@H](NCc2nccs2)[C@@H]1O	1.2%
O=C1NCCN2CC3(CCN(C(=O)NCc4ccccc4)CC3)CC12 (stereo unspecified)	-1.1%
O=C(C1CC1)N1CC(Oc2ccccc2-c2nc(-c3cnccn3)no2)C1	5.8%
COc1ccc(N2CCN(C3CCCN(CC=C(C)C)C3)CC2)cc1 (stereo unspecified)	-9.2%
CN1[C@H](C(=O)O)C[C@H](C(=O)NCC2(CO)CCCC2)[C@@H]1c1ccccc1F	-2.0%
O=C(c1cccc(F)c1)N1CCC(N2CC3CC(C2)[C@H]2CCCC(=O)N2C3)CC1 (stereo partly specified)	-1.9%
Cc1cc(C)c(NC(=O)Cn2cccc2-c2nc(-c3ccc(F)cc3)no2)c(C)c1	3.2%
CN(C)C[C@@H]1CN(c2ccccn2)C[C@H]1NC(=O)Cn1c(=O)oc2ccccc21	2.2%
O=c1cc(N2CCOCC2)oc2c(-c3ccccc3F)nccc12	14.7%[70.6 µM]
CC(C)(CNc1ccc(-c2nc(C3CC3)no2)cn1)N1CCOCC1	0.8%
COc1cc(OC)cc(-c2nc(C3CC(=O)N(c4ccc(C)cc4)C3)no2)c1 (stereo unspecified)	2.4%
NCCc1noc(Cc2ccccc2)n1	0.0%
CCc1nncn1C1CCN(S(=O)(=O)c2ccc(F)c(Cl)c2)CC1	-12.3%
Cc1noc(C)c1-c1cc2cc(C(C)C)oc2c(NCCN(C)C)n1	6.7%[70.6 µM]

Entries listed so far that contain a tert-butyl group:
SMILES	NPR1 antag
CC(C)(C)NC(=O)N1CCCCCCNC(=O)[C@@H]2C[C@@H](C(=O)N3CCN(c4ccccn4)CC3)C[C@@H]21	1.5%
CC(C)(C)CC(=O)N[C@H]1C[C@@](O)(C(=O)NCC(N)=O)C[C@@H](O)[C@@H]1O	-1.5%[70.6 µM]

Back to the main list, repeating the 2 entries before the break.
SMILES	NPR1 antag
CCc1nncn1C1CCN(S(=O)(=O)c2ccc(F)c(Cl)c2)CC1	-12.3%
Cc1noc(C)c1-c1cc2cc(C(C)C)oc2c(NCCN(C)C)n1	6.7%[70.6 µM]
O=C(C[C@@H]1CCNC[C@@H]1Cc1cc(CN2CCCCC2)on1)N1CCCCC1	3.9%[70.6 µM]
Cc1cccc(CN2CC[C@@H]3OCC(=O)N(Cc4ccc(O)cc4)[C@H]3CC2)c1	-17.2%[70.6 µM]
COc1ccc(-c2nc3c(c(=O)[nH]2)CCN(C(=O)Nc2ccccc2Cl)C3)cc1	-0.5%
Cc1ccsc1C(=O)N1CCCC(n2cc(-c3nc(C4CC4)no3)nn2)C1 (stereo unspecified)	?
Cc1ccc(CN2CCCC(Cc3ncc(C)n3Cc3ccccc3)C2)o1 (stereo unspecified)	2.9%
CCOCC1(C)COc2ccc(C(=O)Nc3cccc(OC)c3)cc2N1 (stereo unspecified)	-3.8%[70.6 µM]
CN(CC(=O)O)C(=O)[C@H]1C[C@@](C)(C(=O)O)N(C)[C@H]1c1ccc(Cl)cc1	2.9%
CC(C)N1C[C@@H]2C[C@H]1C(=O)N(Cc1ccc(OC(F)(F)F)cc1)c1ccccc1O2	-25.2%[70.6 µM]
COCCN(C)C[C@H]1C[C@H](CO)CN(C(=O)c2csc(C(C)=O)c2)C1	-1.8%

Source: PubChem BioAssay

Some of the compounds tested; the hit share may differ from the screen's.
